Bioassay records (PubChem)
MLL AF4-AF9 inh: blocks AF4 peptide binding to human AF9; 0.47% of 350,000 active; P42568; inhibition, % at 10 µM; AlphaScreen, biotin-AF4 peptide binding to FLAG-AF9;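 active means every replicate reaching a set inhibition limit, whatever the replicate mean, cut at about 25% in these data; inconclusive means mean inhibition reaches that limit but some replicates miss it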;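 further: 0% = plate neutral control median and 100% = total signal loss; the record names both 10 and 1 µM as test concentration; the first replicate is given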
Target sequence (P42568 whole entry, looked up): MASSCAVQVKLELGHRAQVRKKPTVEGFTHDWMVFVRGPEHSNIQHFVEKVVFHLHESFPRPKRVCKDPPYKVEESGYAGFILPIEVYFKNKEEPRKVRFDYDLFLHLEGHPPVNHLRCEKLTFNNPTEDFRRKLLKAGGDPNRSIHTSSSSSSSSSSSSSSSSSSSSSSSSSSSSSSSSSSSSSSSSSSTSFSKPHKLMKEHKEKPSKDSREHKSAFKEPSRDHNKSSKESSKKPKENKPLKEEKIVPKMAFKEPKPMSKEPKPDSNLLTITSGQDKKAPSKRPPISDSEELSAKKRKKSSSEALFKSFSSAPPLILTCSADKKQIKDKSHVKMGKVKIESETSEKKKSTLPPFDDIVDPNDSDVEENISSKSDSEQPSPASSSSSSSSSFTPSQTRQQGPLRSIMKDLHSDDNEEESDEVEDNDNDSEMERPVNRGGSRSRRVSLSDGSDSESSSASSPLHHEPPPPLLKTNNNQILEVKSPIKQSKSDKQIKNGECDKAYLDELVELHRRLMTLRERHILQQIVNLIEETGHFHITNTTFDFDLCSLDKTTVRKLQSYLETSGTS
Beta cell apopt: beta cell apoptosis inhibition | INS-1E cytokine-induced death, ATP luminescence, 48 h; percent of positive-control rescue, neutral wells zero | protection from apoptosis, % (test concentration not listed) | 0.8% of 300,000 active;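 active means all replicates at 75% or more, or half of them and the mean; inconclusive means half reach 75% but not the mean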;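 further: 0% = cytokine-treated negative control wells and 100% = positive control rescue; higher means more ATP so stronger rescue from cytokine killing; wells of about 40 µL received 100 nL stock; the first replicate is given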
T cruzi inh: T. cruzi replication inhibition. T. cruzi beta-gal in NIH3T3, luminescence, 90 h. inhibition, % (no concentration beside the values). 1.4% of 300,000 active;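 active means mean inhibition across valid replicates above about 55%, limit read from the data; inconclusive means mean below that limit but half or more replicates reach it; inactive means mean below it, under half of replicates reach it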;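 further: signal also drops with host cell toxicity which is not excluded here; 0% = plate median of DMSO wells and 100% = zero luminescence signal; higher percent means less beta-gal luminescence so fewer parasites; stock transfer was 50 nL into about 50 µL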
A1 inh: inhibitors of the anti-apoptotic protein A1, read as caspase activation. 0.066% of 330,000 active. MEF A1-2A-BIM cells, Caspase-Glo 3/7 luminescence, 3 h; percent of clofoctol response, vehicle zero. caspase activation, % (test concentration not listed). AID 2462;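 active means over half of replicate activation scores above 10%, or exactly half above 10 with the replicate mean above 10; inconclusive means replicate mean below 10 yet half the replicates above 10; inactive means over half of replicates below 10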;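 further: wells of about 30 µL received 50 nL stock; many hits fall short of the cut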
RanGTP-Imp inh: disruptors of Ran-importin-beta complex formation – biochemical, FRET, CFP-Ran, YFP-importin-beta, homogeneous, primary screen; inhibition, % (concentration not given with the values); 1.1% of 300,000 active; cell-free CFP-Ran/YFP-importin-beta FRET ratio;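 active means most replicates above 15%; inconclusive means exactly half above 15%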;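 further: 0% = DMSO wells and 100% = Ran loaded with GDP instead of GTP; wells of about 40 µL received 100 nL stock; the first replicate is given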
Ecoli rRNA inh: inhibits bacterial ribosomal RNA function over humanized ribosomes; E. coli WT GFP vs humanized-ribosome RFP mutants, fluorescence, 24 h; hits give low values; DMSO median 0, no signal -100; GFP signal change (wild-type ribosome), % (concentration not given with the values); 1.6% of 350,000 active;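 active means significant combined selectivity score with lowered wild-type GFP, culture density cut under 30%, mutant RFP and density less affected; inactive means any of these conditions unmet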; further: one replicate is shown; some compounds called inactive have numbers as strong as hits
Vif TR-FRET: inhibitors of Vif binding to APOBEC3G peptide, primary screen, biochemical, TR-FRET, GST-Vif 1-94, biotin-A3G peptide, dose response retest (AID 1117319); TR-FRET GST-Vif / biotin-A3G peptide binding; higher % means a stronger effect; test concentration not given here; strong numbers were not always called active; inhibition, %; hits with a dose series show IC50 in µM; 0.57% of 260,000 active;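 active means above the screen mean plus three standard deviations and confirmed in dose response; inconclusive means results disagree or hit not tested in dose response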;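 further: Vif residues 1-94 fused to GST binding biotinylated APOBEC3G peptide 110-148; 0% = full assay without inhibitor and 100% = GST in place of GST-Vif; retest series ran down from 100 µM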
Calb FLC: C. albicans growth modulation with fluconazole; C. albicans CaCi-2 (fluconazole-resistant clinical isolate) + fluconazole, Alamar Blue growth, 48 h; growth inhibition, % (no concentration beside the values); 0.57% of 300,000 active; AID 1979;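 active means most replicates above 75%; inconclusive means exactly half above 75%; inactive means most below 75%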;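 further: all wells also contain fluconazole at 8 µg/ml as a sub-toxic cotreatment; 0% = median of DMSO wells and 100% = median of geldanamycin control wells; wells of about 8 µL received 7.5 nL stock; the first replicate is given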
Ecoli rRNA inh OD600: recorded beside Ecoli rRNA inh, whose call it bears; OD600 change, %; measured here: OD600 growth;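 optical density of the mix in the first replicate; 0 = DMSO median and -100 = no signal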
Ecoli rRNA inh RFP: further read-out of Ecoli rRNA inh, marked with its call; RFP signal change, %; measured here: RFP humanized mutant strains;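 first replicate; 0 = DMSO median and -100 = no signal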
Starred values were filed as active, the others as inactive; u = inconclusive; x = not tested or not shown; & = joins results of further samples.

SMILES	MLL AF4-AF9 inh	Beta cell apopt	T cruzi inh	A1 inh	RanGTP-Imp inh	Ecoli rRNA inh	Ecoli rRNA inh OD600	Ecoli rRNA inh RFP	Vif TR-FRET	Calb FLC
COC(=O)c1ccc2c(c1)NC(=O)C(N(CC(C)C)CC(C)C)S2 (stereo not given)	-5.4	-7	-4	0.4	1.2	11	14	2.5	-4%	-9
Cc1cccc(N2CCN(S(=O)(=O)c3ccc4c(c3)OCCO4)CC2)c1C	2.1	-6	1	0.0	1.0	-4	3	1.5	-6%	8
Cc1onc(-c2ccccc2Cl)c1C(=O)Nc1nn[nH]n1	-3.2	1	x	-0.8	x	-31*	-20*	-5.3*	-3%	x
Cc1cc(-c2csc(N)n2)c(C)n1-c1ccccc1	x	9	13	0.9	-3.2	x	x	x	u	-19
COc1ccc(CCNC(=O)CCN2C(=O)c3cccc4cccc(c34)C2=O)cc1OC	-4.6	3	13	0.3	5.7	-1	4	-1.4	x	u
CCN(CC(=O)Nc1ccccc1C(F)(F)F)C(=O)CCc1nc2ccccc2c(=O)[nH]1	-10	1	1	0.9	-6.1	5	3	3.3	x	4
COc1ccc(NC(=O)CSc2nnc(Cc3ccccc3)c(=O)n2N)c(OC)c1	u	x	-6	-0.9	0.0	0	-3	-2.2	11%	-6
CCCCCCc1nc(C(N)=O)c2[nH]c(=O)n(-c3ccccc3F)c2n1	x	-2	2	0.4	u	x	x	x	-1%	1
COc1ccc(NC(=O)COc2ccc(C(=O)NC3CCCc4ccccc43)cc2OC)cc1 (stereo not given)	x	-1	-8	0.0	-2.5	x	x	x	-11%	-8
O=C(Nc1nc2c(s1)COc1ccccc1-2)c1cccs1	5.7	43	-9	-0.5	3.1	-9	-26	6.1	-11%	35
COc1ccc(NC(=O)C2CC(=O)N/C(=N/NC(=O)c3ccc(Cl)cc3)S2)cc1 (stereo not given)	-11	-4	-12	-0.4	-3.3	-7	-11	-0.8	8%	3
CCOC(=O)C1=C(c2ccccc2)NC(=O)NC1c1ccc(N(C)C)cc1 (stereo not given)	13	6	-13	0.3	-7.8	-8	-16	0.6	u	-8
COc1ccccc1C(=O)NC(=S)NC12CC3CC(CC(C3)C1)C2	-4.6	-4	-5	-0.1	0.6	6	5	-3.2	-11%	-6
COc1ccc(C(CCNCc2ccccc2)c2ccc(F)cc2)cc1 (stereo not given)	x	15	2	-0.3	-2.1	x	x	x	26%	-3
Cc1ccc(N(C(=O)c2ccco2)C2C=CS(=O)(=O)C2)cc1 (stereo not given)	0.1	x	-15	-0.5	1.1	6	6	-1.6	6%	-19
CCOc1ccc(-c2c(C(=O)N/N=C/c3ccoc3)nnn2-c2nonc2N)cc1	-0.1	2	-9	0.2	3.1	16	12	-1.3	x	-14
C#CCOCCOCCOCCNc1nc(N2CCN(C(=O)C(Cc3ccc(O)cc3)n3cc(C(N)C(C)CC)nn3)CC2)nc(N2CCN(C(=O)C(Cc3ccc(O)cc3)n3cc(C(N)C(C)CC)nn3)CC2)n1 (stereo not given)	9.1	3	-7	1.1	6.6	-8	-5	16	-11%	20
COCc1nc(-c2ccc(-c3ccc(C)cc3)nc2OC)no1	x	-3	1	-0.8	-3.7	x	x	x	-20%	u
CCc1cc2c(C)cc(=O)oc2cc1OC(=O)C1CCCN1C(=O)OC(C)(C)C (stereo not given)	0.9	x	-6	-0.3	4.3	x	x	x	u	9
CS(=O)(=O)N1CCc2cc(C(=O)N3CCN(c4ccccc4)CC3)ccc21	1.5	-3	6	-0.5	-11	2	10	-0.5	11%	-3
O=C1c2ccccc2NC(c2cccc(O)c2)N1Cc1ccco1 (stereo not given)	5.2	-7	8	0.8	0.0	-22	-1	15	-2%	0
CC(C)C(C)NC(=O)CSc1nc2scc(-c3ccco3)c2c(=O)n1-c1ccccc1 (stereo not given)	x	x	29	-0.1	1.5	x	x	x	-1%&12%	11
CC(C)C[C@@H](CSc1ccccc1)N1CCN(C)CCC1=O	-18	0	-16	0.6	-1.1	5	10	1.9	x	-23
CCOC(=O)c1nc(Nc2ccc(C(=O)OC)cc2)c2ccccc2n1	x	6	8	0.0	2.7	x	x	x	u	2
O=C(c1cc(C(=O)N2CCN(c3ccc(F)cc3)CC2)cc([N+](=O)[O-])c1)N1CCN(c2ccc(F)cc2)CC1	4.1	-8	46	-0.6	2.1	-17	-19	-12	x	-5
CCOC(=O)c1c(NC(=O)C2C3C=CC(C3)C2C(=O)O)sc2c1CCC(C)C2 (stereo not given)	-0.6	-5	-15	0.3	0.9	x	x	x	9%	10
O=C(c1ccc2c(c1)C(=O)N(Cc1ccco1)C2=O)N1CCOCC1	u	1	-13	0.0	-0.5	11	1	-7.1	-5%	-21
CC(C)(C)c1cc(NC(=O)NN2CCOCC2)nn1-c1c(Cl)cc(Cl)cc1Cl	4.0	-5	26	-0.2	5.7	x	x	x	3%	7
CCCCCCN(C(=O)CCCCCN1C(=O)NC(c2ccc(-c3ccccc3)cc2)C(C(=O)OCc2ccccc2)=C1C)C(C(=O)NCCCC)c1cccc(C(=O)OC)c1 (stereo not given)	x	x	14	x	-0.4	4	15	-0.6	u	7
CCCCC1CCC(C(=O)N2CCOCC2)CC1 (stereo not given)	-0.6	-3	-4	-0.6	1.8	-3	-2	-4.1	-7%	16
Cc1[nH]c(=O)[nH]c(=O)c1S(=O)(=O)N(CC(C)C)CC(C)C	-1.2	x	-18	-0.4	4.5	-1	4	-2.0	21%	20
COC(=O)c1ccc(OC(=O)c2nn(C)cc2Cl)c(OC)c1	x	x	8	-0.2	4.4	x	x	x	14%	31
CC(C)Oc1ccc(C2CCC(=O)NC2=O)cc1 (stereo not given)	-9.9	-2	-16	0.1	6.6	6	3	1.7	-6%	-5
Cn1c(SCc2cnc(-c3ccccc3)s2)nnc1C1COc2ccccc2O1 (stereo not given)	x	-4	5	-0.5	3.8	x	x	x	1%	-5
CC(C)NC(=O)CSc1ccccc1C(=O)NCc1ccc2c(c1)OCO2	x	-4	5	-0.4	-2.5	x	x	x	-4%	-23
COC(=O)N/N=C/c1ccc(-c2cc(Cl)ccc2Cl)o1	x	-3	2	2.1	-3.1	x	x	x	-1%	-3
C/C(N)=C(/C#N)C(=O)CSc1nc2ccc(C)cc2[nH]1	x	-5	-16	-1.8	2.1	x	x	x	27%	25
CC1CN(C(=O)CNC(=O)COc2ccccc2)CC(C)O1 (stereo not given)	-11	1	x	0.8	x	8	12	-1.1	x	x
CC(C)(C)NC(=O)C(c1ccccc1)N(C(=O)c1ccco1)C1CC1 (stereo not given)	x	-2	-12	0.0	2.3	x	x	x	-3%	-7
COc1cc(OC)c(OC)cc1CNC(=O)c1cc(=O)c2ccccc2o1	-31	2	-7	0.4	3.9	5	6	-2.1	x	1
CC(C)CC(C(=O)OCC(=O)Nc1ncc(Cl)cc1Cl)N1C(=O)c2ccccc2C1=O (stereo not given)	x	-6	-8	-0.9	2.6	x	x	x	4%	-3
CC(C)C(c1nnnn1Cc1ccc(F)cc1)N1CCC(C(N)=O)CC1 (stereo not given)	-1.3	-1	12	0.2	6.0	13	-5	1.9	x	-21
N#CCCn1nc(-c2ccc([N+](=O)[O-])cc2)cc1Nc1ccccc1NC(=O)C(F)(F)F	x	-6	-9	0.1	u	x	x	x	-1%	5
O=C(C[n+]1ccccc1)N/N=C/c1cc(Br)ccc1F	3.5	-6	x	-0.3	x	7	8	6.0	4%	x
COc1ccc(C(=O)NNC(=O)CN2CCN(c3nc(-c4ccccc4)cs3)CC2)cc1	-3.3	-2	-4	0.3	x	8	8	0.8	x	x

Reprinted from the results shown for reference:
SMILES	MLL AF4-AF9 inh	Beta cell apopt	T cruzi inh	A1 inh	RanGTP-Imp inh	Ecoli rRNA inh	Ecoli rRNA inh OD600	Ecoli rRNA inh RFP	Vif TR-FRET	Calb FLC
COc1cc(OC)c(OC)cc1CNC(=O)c1cc(=O)c2ccccc2o1	-31	2	-7	0.4	3.9	5	6	-2.1	x	1
CC(C)CC(C(=O)OCC(=O)Nc1ncc(Cl)cc1Cl)N1C(=O)c2ccccc2C1=O (stereo not given)	x	-6	-8	-0.9	2.6	x	x	x	4%	-3
CC(C)C(c1nnnn1Cc1ccc(F)cc1)N1CCC(C(N)=O)CC1 (stereo not given)	-1.3	-1	12	0.2	6.0	13	-5	1.9	x	-21

(continued)
SMILES	MLL AF4-AF9 inh	Beta cell apopt	T cruzi inh	A1 inh	RanGTP-Imp inh	Ecoli rRNA inh	Ecoli rRNA inh OD600	Ecoli rRNA inh RFP	Vif TR-FRET	Calb FLC
CCCc1cc(C(=O)Nc2ccc(C#N)cc2)no1	-1.2	-4	7	1.0	-0.3	7	17	-0.6	x	3
Cc1ccc(S(=O)(=O)CCC(=O)N(CCCN2CCOCC2)c2nc3ccccc3s2)cc1	0.0	x	12	1.4	4.7	10	15	-1.0	-3%	13
CCN(CC)C(=O)N1CCc2ccccc2C1CN1C(=O)c2ccccc2C1=O (stereo not given)	x	-1	-7	-1.0	-1.4	x	x	x	0%	-9
CCOC(=O)C1=C(C)NC(=O)NC1c1ccccc1 (stereo not given)	-1.5	-1	-8	0.8	3.5	-1	6	-1.0	-2%	-8
CCCN(CC(=O)Nc1ccccc1OC)C(=O)c1ccc2ncsc2c1	1.7	-13	x	0.2	x	2	5	0.6	-7%	x
Cc1ccccc1N1C(=O)C2CCCN2C1=S (stereo not given)	-2.4	-1	x	1.4	x	-2	6	-6.6	-7%	x
O=C(CCN1CCCCCC1)Nc1cccc(F)c1	x	-10	4	-0.6	-0.3	x	x	x	-1%	4
O=C(O)c1ccc2c(c1)N(Cc1ccccc1F)C(=O)c1ccccc1S2=O (stereo not given)	-2.0	7	-1	-0.4	0.6	-19	-26	-1.9	-1%	7
CCN1C(=O)/C(=C2/C(=O)N3c4c(cc(OC(C)=O)cc42)C(C)=CC3(C)C)SC1=S	x	1	11	1.2	-0.8	x	x	x	x	-7
Cc1cc(C)nc(NS(=O)(=O)c2ccc(N/C=C/C(=O)c3ccc(Cl)cc3)cc2)n1	x	1	-1	0.5	4.8	x	x	x	x	-17
CCCn1c(N)c(C(=O)CN2CCc3ccccc3C2)c(=O)n(C)c1=O	-0.7	0	9	-0.5	-3.5	18	12	3.5	-4%	-30

Structures from the list above that contain a nitro group on carbon (two):
SMILES	MLL AF4-AF9 inh	Beta cell apopt	T cruzi inh	A1 inh	RanGTP-Imp inh	Ecoli rRNA inh	Ecoli rRNA inh OD600	Ecoli rRNA inh RFP	Vif TR-FRET	Calb FLC
O=C(c1cc(C(=O)N2CCN(c3ccc(F)cc3)CC2)cc([N+](=O)[O-])c1)N1CCN(c2ccc(F)cc2)CC1	4.1	-8	46	-0.6	2.1	-17	-19	-12	x	-5
N#CCCn1nc(-c2ccc([N+](=O)[O-])cc2)cc1Nc1ccccc1NC(=O)C(F)(F)F	x	-6	-9	0.1	u	x	x	x	-1%	5

Only part of the results is shown; count on the stated rates, not on these rows.
